From PubChem BioAssay
nsP2pro inh = blocks chikungunya virus nsP2 protease peptide cleavage; Q8JUX6; actives 1.1% (n = 31,000); Potency, µM (highest dose often 24.9 µM), without a hit: at the highest dose activity change, negative = inhibition, usual class: inhibitors; FRET peptide cleavage, nsP2pro, fluorescence 1 h; active means well fitted inhibition curve with a large enough effect; inconclusive means small, poorly fitted or top-dose-only effect; inactive means no such curve, though single readings can be large or run the other way; further: nearly all actives have a fitted effect of over 60% in size; a reference inhibitor and vehicle were the controls
Target sequence (Q8JUX6 whole entry, looked up): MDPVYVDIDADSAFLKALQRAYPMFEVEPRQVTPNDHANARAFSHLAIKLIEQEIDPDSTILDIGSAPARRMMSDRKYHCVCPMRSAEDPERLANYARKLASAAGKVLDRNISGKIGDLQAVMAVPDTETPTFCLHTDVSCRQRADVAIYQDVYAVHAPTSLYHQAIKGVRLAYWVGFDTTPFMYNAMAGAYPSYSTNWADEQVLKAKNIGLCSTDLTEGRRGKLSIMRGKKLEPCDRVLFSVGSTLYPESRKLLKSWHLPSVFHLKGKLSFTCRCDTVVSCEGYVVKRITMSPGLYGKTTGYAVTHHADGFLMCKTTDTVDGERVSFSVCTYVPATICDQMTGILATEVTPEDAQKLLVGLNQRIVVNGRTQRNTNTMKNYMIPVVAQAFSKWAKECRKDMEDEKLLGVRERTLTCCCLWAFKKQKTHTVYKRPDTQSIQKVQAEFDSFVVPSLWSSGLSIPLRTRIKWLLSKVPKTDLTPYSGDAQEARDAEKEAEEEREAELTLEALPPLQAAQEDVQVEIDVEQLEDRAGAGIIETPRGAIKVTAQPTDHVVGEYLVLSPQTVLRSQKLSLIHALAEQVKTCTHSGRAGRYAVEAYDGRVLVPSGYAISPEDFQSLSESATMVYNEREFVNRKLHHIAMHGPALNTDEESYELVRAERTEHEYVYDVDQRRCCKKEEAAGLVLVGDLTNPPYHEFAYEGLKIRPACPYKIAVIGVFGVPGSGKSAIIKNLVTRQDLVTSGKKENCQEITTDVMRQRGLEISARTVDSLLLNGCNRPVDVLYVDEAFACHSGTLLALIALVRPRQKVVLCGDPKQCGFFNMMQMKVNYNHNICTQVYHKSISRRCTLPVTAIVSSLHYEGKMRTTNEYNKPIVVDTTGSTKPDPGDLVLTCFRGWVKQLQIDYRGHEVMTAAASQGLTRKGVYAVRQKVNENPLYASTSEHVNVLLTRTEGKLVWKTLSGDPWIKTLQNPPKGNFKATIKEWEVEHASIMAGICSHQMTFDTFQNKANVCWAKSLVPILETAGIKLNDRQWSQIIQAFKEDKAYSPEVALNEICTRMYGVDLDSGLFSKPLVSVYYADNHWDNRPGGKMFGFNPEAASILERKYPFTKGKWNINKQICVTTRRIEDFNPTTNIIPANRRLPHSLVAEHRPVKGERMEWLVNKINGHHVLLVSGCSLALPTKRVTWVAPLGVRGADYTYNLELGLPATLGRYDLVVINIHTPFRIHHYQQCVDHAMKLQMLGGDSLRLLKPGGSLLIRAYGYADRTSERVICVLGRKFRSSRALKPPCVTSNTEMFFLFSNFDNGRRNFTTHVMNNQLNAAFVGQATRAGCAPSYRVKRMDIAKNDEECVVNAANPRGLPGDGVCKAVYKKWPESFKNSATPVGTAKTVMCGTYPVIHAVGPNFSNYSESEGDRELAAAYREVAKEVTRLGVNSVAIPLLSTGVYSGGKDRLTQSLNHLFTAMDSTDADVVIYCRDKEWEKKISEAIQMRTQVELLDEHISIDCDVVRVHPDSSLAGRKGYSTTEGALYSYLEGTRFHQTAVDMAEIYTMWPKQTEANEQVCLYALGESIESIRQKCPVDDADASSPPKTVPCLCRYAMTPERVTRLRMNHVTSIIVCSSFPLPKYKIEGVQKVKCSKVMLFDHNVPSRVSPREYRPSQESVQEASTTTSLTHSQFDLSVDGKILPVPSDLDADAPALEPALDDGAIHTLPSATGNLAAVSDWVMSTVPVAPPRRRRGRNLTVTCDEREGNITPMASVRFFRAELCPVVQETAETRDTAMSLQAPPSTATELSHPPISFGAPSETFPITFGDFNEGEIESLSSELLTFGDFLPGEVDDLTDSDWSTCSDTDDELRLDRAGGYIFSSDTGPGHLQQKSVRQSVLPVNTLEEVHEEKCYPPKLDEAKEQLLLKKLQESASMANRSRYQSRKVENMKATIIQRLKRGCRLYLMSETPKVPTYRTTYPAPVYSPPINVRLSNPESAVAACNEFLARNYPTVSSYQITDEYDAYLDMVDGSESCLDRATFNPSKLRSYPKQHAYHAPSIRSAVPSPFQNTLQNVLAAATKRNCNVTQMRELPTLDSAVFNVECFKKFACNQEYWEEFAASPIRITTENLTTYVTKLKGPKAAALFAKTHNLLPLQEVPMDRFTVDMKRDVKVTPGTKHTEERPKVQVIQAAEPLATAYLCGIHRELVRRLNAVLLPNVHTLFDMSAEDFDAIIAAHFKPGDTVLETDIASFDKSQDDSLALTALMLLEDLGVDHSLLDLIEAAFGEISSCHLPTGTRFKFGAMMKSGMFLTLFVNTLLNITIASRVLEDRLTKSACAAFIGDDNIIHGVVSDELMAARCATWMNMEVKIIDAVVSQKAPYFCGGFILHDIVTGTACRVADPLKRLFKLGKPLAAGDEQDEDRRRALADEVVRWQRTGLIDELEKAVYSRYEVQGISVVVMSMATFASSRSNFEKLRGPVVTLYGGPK
The depositor's hits bear a star; i = inactive; ? = inconclusive; & = joins results of further samples; ! = not active in a repeat; [ ] = dose if it differs, or a comment. On the % scale 0 is the no-effect control and ±100 the full control effect; potency means the concentration at half of the fitted maximal effect. Only part of the results is shown; the hit share may differ from the screen's.

smiles,nsP2pro inh
CCC1OC(=O)[C@H](C)C(=O)[C@H](C)[C@@H](OC2O[C@H](C)C[C@H](N(C)C)[C@H]2O)[C@](C)(OC)C[C@@H](C)C(=O)[C@@H](C)[C@@H]2N(CCCCn3cnc(-c4cccnc4)c3)C(=O)O[C@]12C (some centres undefined),20%
Cc1cc(C)cc(-c2ccc(CN3CCCC(N[S+](=O)([O-])c4cccs4)C3)cc2)c1 (centres undefined),-3%
C[C@@H]1O[C@@H](O[C@H]2[C@H](OC(=O)[C@]34CCC(C)(C)C[C@H]3C3=CCC5[C@@]6(C)CC[C@H](O[C@@H]7O[C@H](CO[C@@H]8OC[C@H](O)[C@H](O)[C@H]8O[C@@H]8OC[C@@H](O)[C@H](O)[C@H]8O)[C@@H](O)[C@H](O)[C@H]7O)C(C)(C)C6CC[C@@]5(C)[C@]3(C)C[C@H]4O)O[C@H](CO)[C@@H](O)[C@@H]2O)[C@H](O[C@@H]2O[C@H](CO)[C@@H](O)[C@H](O)[C@H]2O)[C@H](O)[C@H]1O[C@@H]1OC[C@@H](O)[C@H](O[C@@H]2OC[C@@H](O)[C@H](O)[C@H]2O)[C@H]1O (some centres undefined),0%[2.68 µM]
COc1ccc(C2=Nn3c(nnc3-c3cccc(OC)c3)SC2)cc1,i
CC1(C)CC[C@]2(C(=O)O[C@@H]3O[C@H](CO[C@@H]4O[C@H](CO)[C@@H](O)[C@H](O)[C@H]4O)[C@@H](O)[C@H](O[C@@H]4O[C@H](CO)[C@@H](O)[C@H](O)[C@H]4O)[C@H]3O)[C@H](O)C[C@]3(C)C(=CCC4[C@@]5(C)CC[C@H](O[C@@H]6OC[C@@H](O)[C@H](O)[C@H]6O)[C@@](C)(C(=O)O)C5CC[C@]43C)[C@@H]2C1 (some centres undefined),32%[5.1 µM]
O=C(c1cc(-c2ccc(Br)cc2)n[nH]1)N1CCN(S(=O)(=O)c2ccc(Cl)s2)CC1,-15%
O=S1(=O)CCN(CN2CCS(=O)(=O)NC2)CN1,10%
CCOC(=O)C(CC)Sc1ccc2nnc(CCNS(=O)(=O)c3ccc(C)cc3)n2n1 (centres undefined),18%
CCNC(=O)N1CCCCCC1CN1CCC(C)CC1 (centres undefined),i
CCN(CC)C(=O)[C@@H]1CCC[C@@H](NCc2cccc(OC)c2)CN(C)C(=O)C1,i
CCN(CC)S(=O)(=O)c1ccc(NC(=O)c2c(C)oc3ncnc(N4CCOCC4)c23)cc1,-10%
CCN(CCO)CCCC(C)Nc1ccnc2cc(Cl)ccc12 (centres undefined),-4%&-5%[2.68 µM]
Cc1ccc(-c2noc([C@@H]3CCCN3C(=O)CCCc3ccccc3)n2)cc1,2%
COc1cccc(CNC(=O)C(C)n2c(=O)cc(-c3ccccc3)c3c(C)nn(C)c32)c1 (centres undefined),-14%
CCNC(=O)[C@@H]1C[C@H](NC(=O)c2ccc(CO)o2)CN1Cc1nccs1,-6%
c1cc2c(cc1CNc1ccc(N3CCOCC3)cc1)OCO2,-6%
Cc1cccc(C(=O)Nc2ccc(N3CCC(CCN4CCOCC4)CC3)c(C(=O)O)c2)c1,4.5µM*!
Cc1nc(C2CCN(C(=O)[C@H]3CNC[C@H](C(=O)N4CCCC4)C3)CC2)n[nH]1,i
CNC(=O)C(C)(C)N1CCC[C@H]1C(=O)NCc1ccccc1,-9%[39.2 µM]
COc1ccc(NC(=O)c2c(NCc3sccc3C)sc3c2CCCC3)c(OC)c1,-13%
COc1ccc(-n2ccnc2-c2cc3n(n2)CCCNC3)c(OC)c1,i
O=C(Nc1ccccc1)N1CCC(N2CC3CCCN3C2=O)CC1 (centres undefined),-8%[39.2 µM]
NCCc1c[nH]c2ccccc12,-22%
COc1ccc(C2Nc3ccccc3C(=O)N2CCc2ccc(Cl)cc2Cl)cc1COc1ccc(NC(C)=O)cc1 (centres undefined),-20%
Cc1nc2ccccn2c1C(=O)NC(C)c1cnn(-c2ccccn2)c1C (centres undefined),-4%

Given with each value named: part of the list above
COc1ccc(C2=Nn3c(nnc3-c3cccc(OC)c3)SC2)cc1
- nsP2pro inh: i
COc1ccc(NC(=O)c2c(NCc3sccc3C)sc3c2CCCC3)c(OC)c1
- nsP2pro inh: -13%
c1cc2c(cc1CNc1ccc(N3CCOCC3)cc1)OCO2
- nsP2pro inh: -6%
CCC1OC(=O)[C@H](C)C(=O)[C@H](C)[C@@H](OC2O[C@H](C)C[C@H](N(C)C)[C@H]2O)[C@](C)(OC)C[C@@H](C)C(=O)[C@@H](C)[C@@H]2N(CCCCn3cnc(-c4cccnc4)c3)C(=O)O[C@]12C (some centres undefined)
- nsP2pro inh: 20%

(list continues)
smiles,nsP2pro inh
Nc1c(C(=O)Nc2ccc(Cl)c(C(F)(F)F)c2)sc2nc(-c3ccncc3)ccc12,-7%
CO[C@H]1[C@@H](O)[C@H](N)[C@@H](O[C@H]2O[C@H]([C@H](C)N)CC[C@H]2N)[C@H](O)[C@@H]1N(C)C(=O)CN,31%[activator]
CN(C)CC1CCOC1(c1ccccc1)c1ccccc1 (centres undefined),-4%[10 µM]
COCC(=O)N[C@H]1CCN(C(=O)COC)[C@H](C(=O)N[C@H](Cc2ccccc2)C(N)=O)C1,-18%[39.2 µM]
COC(=O)N1CCCCC12Cc1ccccc1NC2=O (centres undefined),-4%[39.2 µM]
CC(C)COc1ccc(C(=O)Nc2nnc(S(=O)(=O)N(C)Cc3ccco3)s2)cc1,?
CC[C@@]1(O)C(=O)OCc2c1cc1n(c2=O)Cc2c-1nc1ccccc1c2/C=N/OC(C)(C)C,9%
Nc1nc(F)nc2c1ncn2[C@@H]1O[C@H](CO)[C@@H](O)[C@@H]1O,-7%&0%
COc1ccc2cc(-c3cc(-c4cc(Cl)cc(Cl)c4)nn3C(C)c3ccc(C(=O)NCCC(=O)O)cc3)ccc2c1 (centres undefined),479%[activator]
COc1ccc(CCN2CCN(CCCc3ccccc3)CC2)cc1OC,-9%
Cc1ccc(Cl)cc1N1CCN(C(=O)c2cnn(C)c2C2CCN(C(=O)OC(C)(C)C)CC2)CC1,-9%
C[C@@H]1CC[C@]2(C(=O)O)CC[C@]3(C(=O)O)C(=CCC4[C@@]5(C)CC[C@H](O[C@@H]6O[C@@H](C)[C@H](O[C@@H]7O[C@H](CO)[C@@H](O)[C@H](O)[C@H]7O)[C@@H](O)[C@H]6O)C(C)(C)C5CC[C@]43C)C2[C@H]1C (some centres undefined),?
CCCCN(C)C(=O)Cn1nc(-c2ccncc2)ccc1=O,4%
CN(C)c1ccc(-c2nc(-c3cccs3)c(-c3cccs3)[nH]2)cc1,-6%
COc1ccc(NC(=O)N[C@H]2C[C@@H](C(=O)N[C@@H](Cc3cccs3)C(N)=O)N(C(=O)CSC)C2)cc1,1%
COc1cc(OC)c(C2CC(=O)Nc3ccc4ccccc4c32)cc1OC (centres undefined),-11%
Cc1ccc([C@@H]2CN(c3cc(N4CCC(O)CC4)ncn3)C[C@H]2N(C)C)cc1,-8%
CC1=NOC2(CCN(Cc3ccc(N(C)C)cc3)CC2)C1,3%[39.2 µM]
CCCCCCC(=O)O[C@H]1CC[C@H]2[C@@H]3CC[C@H]4CC(=O)C=C(C)[C@]4(C)[C@H]3CC[C@]12C,48%[activator]
Cc1cccc(CNc2ncnc3ccc(-c4ccccc4Cl)cc23)c1,0%
Cc1cccnc1NCCNC(=O)c1ccc(S(N)(=O)=O)cc1,-11%
CC(C)(Oc1ccc(Cl)cc1)C(=O)Nc1ccc(-c2nc3ncccc3o2)cc1,-10%
Fc1ccc2nc(CO[C@H]3CN(C4CCOCC4)C[C@H]3F)[nH]c2c1,-11%[39.2 µM]
CC(=O)O[C@@H]1C=C2[C@H](CC[C@@]3(C)[C@@]2(O)CC[C@H]2Cc4c([nH]c5ccccc45)[C@@]23C)O[C@@H]1C(C)(C)O,11%[10 µM]
CCOc1cc(C(C)(C)C)ccc1C1=N[C@@](C)(c2ccc(Cl)cc2)[C@@](C)(c2ccc(Cl)cc2)N1C(=O)N1CCN(CC(=O)N2CCOCC2)CC1,9%

2 entries drawn at random from those above, as already listed:
smiles,nsP2pro inh
O=C(c1cc(-c2ccc(Br)cc2)n[nH]1)N1CCN(S(=O)(=O)c2ccc(Cl)s2)CC1,-15%
Nc1c(C(=O)Nc2ccc(Cl)c(C(F)(F)F)c2)sc2nc(-c3ccncc3)ccc12,-7%

The listing continues.
smiles,nsP2pro inh
CC(C)NC(=O)c1ccnc(-c2ccccc2S(=O)(=O)NC(C)(C)C)c1,0%
Cc1cccc(S(=O)(=O)c2cn(Cc3ccc(F)cc3)c3cc(N4CCOCC4)c(F)cc3c2=O)c1,-12%
Cc1ccnc(NC(=S)NC2CN(c3cccc(C(F)(F)F)c3)C2)c1,2%
CCCc1ccc(-c2csc(NC(=O)c3ccncc3NS(=O)(=O)c3ccc(C)cc3)n2)cc1,-11%
O=C(COc1ccc(F)cc1)N1CCCCC1c1nc(-c2cnccn2)n[nH]1 (centres undefined),i
CC(=O)Nc1ccc(CN2CC[C@@H](c3ccc4c(c3)OCO4)[C@H](O)C2)cc1,3%
CN(c1ccccc1CNc1nc(Nc2ccc3c(c2)CC(=O)N3)ncc1C(F)(F)F)S(C)(=O)=O,-11%
COc1cc(NS(=O)(=O)c2cc(Br)cc3c2N(C(C)=O)C(C)C3)cc(OC)c1 (centres undefined),-2%
O=C(NC1CCCN(C2CCCCCC2)C1)c1ccccc1C(F)(F)F (centres undefined),-5%
CCCn1ncc(CN2CCCC23CCN(c2ncccn2)CC3)c1C,-9%
Cc1ccc(NC(=O)C2CCN(C(=O)c3sc4nc[nH]c(=O)c4c3C)CC2)cc1F,-11%
COC1CC(OC2CCC3(C=O)C(CCC4C3CCC3(C)C(C5=CC(=O)OC5)CCC43O)C2)OC(C)C1OC1OC(CO)C(O)C(O)C1O (centres undefined),?
Cn1cc(-c2cc3c(N4CCN(c5ncc([C@@](C)(N)c6ccc(F)cc6)cn5)CC4)ncnn3c2)cn1,12%
COc1cccc([C@@H]2CN(C(=O)c3cc(C)oc3C)C[C@H]2C(=O)O)c1OC,?
O=C(NCc1ccc(F)cc1)c1cc2c(=O)n3ccccc3nc2s1,-16%
CCCOc1ccc(CNC(=O)c2oc3ccc4c(c3c2C)C(=O)CC(C)(CC)O4)cc1 (centres undefined),-24%
CN(C)C1CCCN(C(=O)c2csc3c2CCCC3)CC1 (centres undefined),i
CN(C)CC(=O)NC1CCCc2c1cnn2-c1ccc(F)cc1F (centres undefined),?
CSCC(=O)N[C@@H]1CN(Cc2cccnc2)C[C@H]1CN(C)C,-11%
CC1(C)N=C(c2ccccc2)C(=O)N1CC(=O)N1CCN(c2ccccc2F)CC1,-6%
C=CCNC(=O)c1cnn2c1CN(C(=O)c1cccnc1)CC2,i
O=C(NCCO)c1cc(C(=O)NCCO)cc(C(=O)NCCO)c1,3%
CCOC(=O)c1ccc(-c2ccc3ncnc(N(C)Cc4sccc4C)c3c2)o1,i
N#Cc1nc(Nc2ccc(-c3ccccc3)cc2)nc(NC2CCCC2)n1,i
CC(/C=C/C1=CC2=CC(=O)C(C)(O)C(O)C2=CO1)=C\C(C)CCO (centres undefined),-23%
CC(=O)OC[C@@]12C(=O)C[C@@H](C)[C@]3(C[C@@H](c4ccoc4)O[C@H]3OC(C)=O)[C@H]1CCC[C@]21CO1,12%[10 µM]
CCN1CCN(c2ncc3c(n2)CCN(Cc2ccc(Br)s2)C3)CC1,46%[activator]
CCOCCCn1c(SCC(=O)Nc2ccc(OC)cc2OC)nc2ccccc2c1=O,-18%
CC(=O)OC[C@]12[C@H](OC(C)=O)C(=O)[C@@H]3[C@@H](O)[C@@]14O[C@@]3(C)COC(=O)c1cccnc1[C@@H](C)[C@H](C)C(=O)O[C@@H]([C@H](OC(C)=O)[C@@H]2OC(C)=O)[C@]4(C)O,-3%[10 µM]
CSc1ccc(CCNC(=O)CN2C(=O)COc3ccc(S(=O)(=O)N4CCCC4)cc32)cc1,-14%
COC(=O)C#Cc1ccc([N+](=O)[O-])cc1,0.99µM*
O=C1CCCC2=C1C(c1c(Cl)cccc1Cl)N=C(Nc1nc3ccccc3o1)N2 (centres undefined),i
COc1ccc(Nc2cc(C)c3cc(NC(=O)Cc4ccc(Cl)cc4)ccc3n2)cc1,-1%
CC(=O)Nc1sc2c(c1-c1cncnc1)CCNC2,i
O=C1CCc2cc(S(=O)(=O)Nc3cccc(-c4ccccc4)c3)ccc2N1,-3%
Cc1ccc(C)c(Cn2c(SCC(=O)N(C)Cc3ccccc3)nc3ccccc32)c1,-9%
CNC(=O)c1cc[nH]c1C1CCCN(C(=O)CCc2nc3ccccc3s2)C1 (centres undefined),-2%
O=C(C1CCCC1)N1C[C@@H](COc2ccncc2)[C@H](c2ccccn2)C1,i
COc1ccc(NC(=O)N2CCCC(Cc3noc(-c4ccncc4)n3)C2)cc1 (centres undefined),-1%
CCc1nc2c(=O)n(CC(=O)NCc3ccco3)nc(C)c2s1,?
CCOc1ccccc1N(CC)C(=O)c1noc2c1COc1ccc(C)cc1-2,-1%
CC[N+](CC)(CC(=O)Nc1c(C)cccc1C)Cc1ccccc1,-5%&-2%
Cc1ccc(-n2nc(CO)c(C(=O)NC(C)c3ccccc3)n2)cc1C (centres undefined),-13%
